High-throughput results from PubChem BioAssay.
PINK1 modulator = modulators of PINK1 expression; PINK1 immunofluorescence, high-content cytometry, 24 h; Potency, µM (titrated, usually from 76.6 µM), for inactives: top-dose activation (PINK1 increase), hits mostly activators; hit rate 0.2% among 410,000; active = well fitted activation curve with a large enough effect; inconclusive = small, poorly fitted or top-dose-only effect; inactive = flat fitted curve, though single readings scatter; cell line not stated here;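 note: potency is the fitted concentration of half-maximal effect; % of control where 0% means no effect; nearly all actives have a fitted effect of over 65% in size; a mitochondrial uncoupler was the plate control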
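Stable cell line treated 24 h with compounds at 5 concentrations (CCCP controls), then fixed and immunostained for PINK1 plus nuclear and cell stains; PINK1 immunofluorescence quantified by laser-scanning microplate cytometry.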
D2 ag = agonists of human D2 dopamine receptor (beta-arrestin). DiscoveRx PathHunter D2 beta-arrestin, luminescence, 90 min; 100% = 57 uM dopamine signal. activation, % (test concentration not listed). hit rate 0.084% among 360,000; in the data active = activation above about 40%; inconclusive = about 15% to 40%; inactive = below about 15%; note: compound concentration not given in the record; the text of the record calls up to 30% inactive
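DiscoveRx PathHunter D2 beta-arrestin cells (2,100/well) attached overnight, then compound-stimulated 90 min at 37 C in HBSS/10 mM HEPES/0.1% Tween-20 buffer; beta-galactosidase complementation read by luminescence after 1 h at ambient temperature. Dopamine 57 uM final (EC100) as control.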
TRPML1 ag = activates the human TRPML1 channel; TRPML1-expressing cells, Ca2+ dye fluorescence, FDSS; host cell line not named in the record; reference of the full effect not given here; activation, % (concentration not given with the values); Q9GZU1; hit rate 0.12% among 410,000; AID 624414; in the data active = activation above about 50%; inconclusive = about 30% to 50%; inactive = below about 30%; note: 0% is about no effect; the text of the record puts the active cut at 80%
Target sequence (Q9GZU1 whole entry, looked up): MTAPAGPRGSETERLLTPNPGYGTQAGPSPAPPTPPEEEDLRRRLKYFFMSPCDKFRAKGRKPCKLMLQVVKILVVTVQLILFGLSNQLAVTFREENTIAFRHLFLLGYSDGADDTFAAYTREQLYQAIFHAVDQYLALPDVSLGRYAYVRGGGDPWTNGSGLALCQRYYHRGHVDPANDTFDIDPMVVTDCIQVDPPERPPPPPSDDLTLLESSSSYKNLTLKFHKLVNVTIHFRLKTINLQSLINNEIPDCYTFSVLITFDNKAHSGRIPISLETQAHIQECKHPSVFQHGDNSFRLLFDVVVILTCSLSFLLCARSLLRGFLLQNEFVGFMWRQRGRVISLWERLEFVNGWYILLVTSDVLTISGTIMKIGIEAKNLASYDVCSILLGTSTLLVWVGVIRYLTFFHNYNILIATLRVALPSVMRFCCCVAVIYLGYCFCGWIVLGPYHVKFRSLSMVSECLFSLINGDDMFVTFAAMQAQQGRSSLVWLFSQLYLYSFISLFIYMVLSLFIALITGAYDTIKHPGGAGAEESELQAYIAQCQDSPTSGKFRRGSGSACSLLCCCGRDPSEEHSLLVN
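Tetracycline-induced TRPML1-DL cells are seeded and incubated overnight before loading with a no-wash Ca2+ dye and quencher. Agonist activity is taken from the 110 s fluorescence read following compound pin-transfer on an FDSS, before EC80 54-4 challenge.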
TRPML1 inh = inhibitors of human TRPML1 channel. Q9GZU1. TRPML1-inducible cells, Ca2+ dye fluorescence, FDSS; hits give low values; inhibition of EC80 agonist-evoked calcium signal. activity change, negative = inhibition, % (test concentration not listed). hit rate 0.02% among 390,000; in the data active means activity change below about -50%; inconclusive means about -30% to -50%; inactive means above about -30%;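 note: stimulus is agonist 54-4 at its EC80 concentration; % is set by controls: 0 for no effect and ±100 for the full control effect; compound concentration not given in the record; the text of the record puts the active cut at -80%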
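Tet-induced TRPML1-DL cells loaded with Ca8 no-wash calcium dye were read kinetically on FDSS. Compound addition was followed by EC80 agonist 54-4 (4 uM final); inhibition was read over 110 s.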
Six1-Eya2 inh = Six1/Eya2 interaction inhibition. AlphaScreen GST-Six1/His-Eya2 binding, biochemical; hits give low values; control for the full effect not named in the record. activity change, % (test concentration not listed). hit rate 0.56% among 360,000. AID 651725; in the data active = activity change below about -65%; inconclusive = about -30% to -65%; inactive = above about -30%; note: % is set by controls: 0 for no effect and ±100 for the full control effect; compound concentration not given in the record
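Six1/Eya2 binding was read as AlphaScreen signal after compounds were pinned into GST-Six1 plus His-tagged Eya2 (5X stock 250/500 nM) in pH 8.0 Tris/NaCl/TCEP buffer, beads added, then incubated 1 h, 37 C, dark.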
CtBP-E1A inh = CtBP/E1A binding inhibition; AlphaScreen GST-E1A/His-CtBP binding, 1536-well; hits give low values; control for the full effect not named in the record; activity change, % (concentration not given with the values); hit rate 0.49% among 340,000; AID 651724; in the data active means activity change below about -65%; inconclusive means about -30% to -65%; inactive means above about -30%; note: % is set by controls: 0 for no effect and ±100 for the full control effect
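Steps: dispense buffer (Tris pH 8.0, NaCl 300 mM, TCEP 1 mM, BSA, Tween 20); add 5X protein mix (GST-E1A, His-CtBP, 125 nM each); pin 23 nL compound; 2 h at 37 °C, dark; add 5X beads (50 ug/mL); 1 h; read.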
* = called active by the depositor; ? = inconclusive; · = no result given; & = joins results of further samples; [ ] = another dose, or the depositor's remark.

Structure | PINK1 modulator | D2 ag | TRPML1 ag | TRPML1 inh | Six1-Eya2 inh | CtBP-E1A inh
O=C(COC(=O)c1ccc2ncsc2c1)Nc1ccc(OC(F)(F)F)cc1 | 3.3% | 0.2 | 0.4 | 14.7 | 14.4 | 4.6
COc1ccc(/C=N\NC(=O)c2ccccc2Br)cc1COc1ccccc1 | 0.0% | 2.9 | 1.4 | -5.1 | -7.2 | 12.8
COc1ccc(-c2noc(-c3ccc(N4CCN(c5ccccc5)CC4)c([N+](=O)[O-])c3)n2)cc1OC | 1.6% | · | -0.5 | 9.2 | · | ·
COC(=O)c1cccc(NC(=O)Cc2ccsc2)c1 | 4.8% | -2.8 | 0.1 | -11.2 | 3.5 | 2.2
COc1ccccc1C(CNC(=O)c1cc(C)nc2ccccc12)N(C)C (stereo not given) | -0.3% | 1.5 | 0.0 | -8.0 | 2.6 | 6.3
Fc1ccc(-c2n[nH]c(=S)n2/N=C/c2c[nH]c3ccccc23)cc1 | 0.8% | 3.1 | 0.7 | -6.4 | -17.4 | -12.4
Cn1c(CN2CCN(c3cccc(Cl)c3)CC2)nc2ccccc21 | -5.8%[38.3 µM] | -2.3 | 2.0 | 0.1 | -10.7 | -11.7
Cc1ccc(NC(=O)N2C3CCCC2CC(NC(=O)C2CC2)C3)cc1 (stereo not given) | -0.1% | -2.2 | 0.4 | 14.1 | 1.8 | 1.6
Clc1ccc(CSc2nnnn2-c2ccc3c(c2)OCO3)c(Cl)c1 | 4.6% | -1.2 | 5.2 | 42.3 | 2.5 | 29.5
O=C(COC(=O)/C=C/c1ccccc1Cl)NCc1ccccc1 | ? | -1.4 | -0.6 | -3.3 | -0.8 | 1.2

Remaining list, next part.
Structure | PINK1 modulator | D2 ag | TRPML1 ag | TRPML1 inh | Six1-Eya2 inh | CtBP-E1A inh
COCc1cc(C)nc(N2CCc3ccccc32)c1C#N | 2.3% | -2.7 | 0.4 | -18.2 | 47.5 | 45.6
Cc1ccc(-c2csc(-c3c(N)c(C(=O)c4ccc5c(c4)OCO5)n4ccccc34)n2)cc1 | 4.1% | · | 1.6 | -14.1 | · | ·
CC1=C(C(=O)NC(C)c2ccccc2)C2(CCC(C)CC2)OC1=O (stereo not given) | 0.5% | 5.3 | 0.5 | 8.4 | 5.3 | 0.8
Cc1cc(C)c2c(N=CN(C)C)c(C(=O)N3CCN(c4ncccn4)CC3)sc2n1 | 0.9% | -1.3 | -0.2 | 18.6 | 1.8 | -0.4
O=C(O)/C=C/C(=O)NC1CCS(=O)(=O)C1 (stereo not given) | 3.2% | -3.5 | -0.5 | 9.1 | 4.1 | 2.3
COc1cc(NC(=O)c2ccccc2Cl)ccc1NC(=O)c1ccco1 | 1.6% | -2.2 | -0.5 | -8.1 | -21.0 | -22.6
CCn1c(SCC(=O)Nc2cccc(OC)c2)nc2c(c1=O)SCC2 | -1.6% | 7.1 | 2.1 | 7.6 | -14.6 | -0.9
CCOc1ccccc1NC(=O)CSc1nc2ccccc2nc1N1CCOCC1 | 2.7%&0.9% | 1.7 | 0.6&2.3 | 38.5&10.7 | 13.6 | 8.5
COc1ccc(CCNC(=O)Cn2cc(C(=O)c3ccccc3)c(=O)c3ccc(C)nc32)cc1OC | -0.7% | · | 1.5 | 50.3 | · | ·
Cc1ccc(NC(=S)N2CCc3[nH]c4ccccc4c3C2)cc1 | 2.9% | -10.8 | -0.5 | 3.4 | ? | -1.8

Next part.
Screens by letter: A = PINK1 modulator; B = D2 ag; C = TRPML1 ag; D = TRPML1 inh; E = Six1-Eya2 inh; F = CtBP-E1A inh
O=C(NCC(=O)N1CCN(S(=O)(=O)c2ccccc2)CC1)c1ccc(Br)o1
  A: 0.4%	B: -1.3	C: 0.1	D: 10.5	E: -0.8	F: 0.5

Cn1c(=O)c2c(-c3ccccc3)n(-n3cnnc3)cc2n(C)c1=O
  A: 1.4%	B: -0.1	C: 0.3	D: -4.4	E: -4.4	F: -4.0

O=C1C2C3C=CC(CC3)C2C(=O)N1c1cccc(C(F)(F)F)c1 (stereo not given)
  A: 0.4%	B: 2.3	C: 0.1	D: -22.7	E: 25.9	F: 0.0

COCCCNC(=O)c1c[nH]c2ccc(S(=O)(=O)N3CCC(C)CC3)cc2c1=O
  A: -0.1%	B: 11.9	C: 1.2	D: 8.2	E: 13.2	F: -8.3

CCOc1cc(/C=C/c2nc3ccccc3c(=O)[nH]2)ccc1O
  A: 6.3%	B: 1.2	C: ·	D: ·	E: 2.5	F: 4.0

COCC(C)NS(=O)(=O)c1ccc(N2CCCCS2(=O)=O)cc1 (stereo not given)
  A: 0.6%	B: ·	C: -0.5	D: -4.2	E: ·	F: ·

NNC(=O)c1cc2c(s1)CCCCCC2
  A: -1.2%	B: 0.7	C: -0.3	D: 3.4	E: 12.6	F: -6.6

COc1ccc2cc(C(=O)C3CCCN(C(=O)c4ccnn4C)C3)ccc2c1 (stereo not given)
  A: 2.0%	B: -4.5	C: -0.1	D: -19.4	E: -0.5	F: ·

CC(=O)Nc1ccc(S(=O)(=O)N2CCN(CCc3ccccc3)CC2)cc1
  A: 0.4%	B: -2.8	C: -0.3	D: -11.6	E: -1.7	F: -1.3

CCC(C)N1C(=O)CCC1C(=O)N1CCN(c2ccc(F)cc2)CC1 (stereo not given)
  A: 0.8%	B: -5.4	C: -0.1	D: 27.0	E: -0.5	F: 2.9

Cc1cccc(NC(=S)N2CCN(S(=O)(=O)c3ccccc3)CC2)c1
  A: 4.7%	B: -1.2	C: -0.6	D: -11.5	E: -0.6	F: 2.1

COc1cc2c(CCNC(C)=O)c[nH]c2cc1Cl
  A: 2.5%	B: -4.0	C: -0.5	D: 0.6	E: -4.8	F: 3.1

COc1cccc(C(=O)COc2ccc(NC(=O)c3ccccc3)cc2)c1
  A: -0.5%	B: 2.8	C: 3.1	D: 23.4	E: -5.0	F: -16.1

COc1cc(C=C2NC(=O)NC2=O)ccc1O
  A: 1.3%	B: -8.2	C: -0.4	D: 17.2	E: -25.2	F: -14.0

O=C(C[n+]1ccccc1)c1ccc(-c2ccccc2)cc1
  A: 0.3%	B: -2.3	C: 1.7	D: -6.9	E: 7.7	F: -6.7

Nothing new here: 4 of the compounds above.
Screens by letter: A = PINK1 modulator; B = D2 ag; C = TRPML1 ag; D = TRPML1 inh; E = Six1-Eya2 inh; F = CtBP-E1A inh
COCCCNC(=O)c1c[nH]c2ccc(S(=O)(=O)N3CCC(C)CC3)cc2c1=O
  A: -0.1%	B: 11.9	C: 1.2	D: 8.2	E: 13.2	F: -8.3

CCOc1cc(/C=C/c2nc3ccccc3c(=O)[nH]2)ccc1O
  A: 6.3%	B: 1.2	C: ·	D: ·	E: 2.5	F: 4.0

COCC(C)NS(=O)(=O)c1ccc(N2CCCCS2(=O)=O)cc1 (stereo not given)
  A: 0.6%	B: ·	C: -0.5	D: -4.2	E: ·	F: ·

NNC(=O)c1cc2c(s1)CCCCCC2
  A: -1.2%	B: 0.7	C: -0.3	D: 3.4	E: 12.6	F: -6.6

Of the compounds above, these have a thiophene ring, fused or not:
Screens by letter: A = PINK1 modulator; B = D2 ag; C = TRPML1 ag; D = TRPML1 inh; E = Six1-Eya2 inh; F = CtBP-E1A inh
COC(=O)c1cccc(NC(=O)Cc2ccsc2)c1
  A: 4.8%	B: -2.8	C: 0.1	D: -11.2	E: 3.5	F: 2.2

Cc1cc(C)c2c(N=CN(C)C)c(C(=O)N3CCN(c4ncccn4)CC3)sc2n1
  A: 0.9%	B: -1.3	C: -0.2	D: 18.6	E: 1.8	F: -0.4

NNC(=O)c1cc2c(s1)CCCCCC2
  A: -1.2%	B: 0.7	C: -0.3	D: 3.4	E: 12.6	F: -6.6

New compounds follow:
Screens by letter: A = PINK1 modulator; B = D2 ag; C = TRPML1 ag; D = TRPML1 inh; E = Six1-Eya2 inh; F = CtBP-E1A inh
CC(C)CNC(=S)NNC(=O)c1ccco1
  A: -1.3%	B: -2.5	C: 1.3	D: 25.3	E: 24.1	F: 0.0

CCOC(=O)c1csc(CCNC(=O)c2ccccc2)n1
  A: -1.5%	B: -1.8	C: 0.0	D: -9.8	E: 5.6	F: 3.8

CC1(C)CC(=O)C2=C(C1)Oc1nc3ccccc3cc1C2C(C#N)C#N (stereo not given)
  A: -2.1%	B: -5.2	C: -0.6	D: 8.3	E: -1.6	F: 3.7

O=C(N1CCOCC1)N1CCCC(c2nc(-c3cccs3)no2)C1 (stereo not given)
  A: 3.3%[38.3 µM]	B: 2.9	C: 0.2	D: 11.4	E: 3.4	F: 3.8
